# Screening results as filed in PubChem.
# CapD inh: blocks the Bacillus anthracis CapD enzyme. purified CapD enzyme, fluorescence intensity read-out; stronger effect = lower value; some hits fall short of the stated cut. z-score (concentration not given with the values). 140,000 compounds, 0.23% hits;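 active = z-score under -4 in either of two replicates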;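 also: stock transfer was 100 nL into about 40 µL; score is relative to mean and spread of the plate; one replicate is shown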
# AID504770: growth inhibitors of E. coli YBA685 in a screen for V. cholerae RctB (chromosome II replication) inhibitors; z-score (test concentration not listed); E. coli YBA685 rctB-dependent plasmid, OD600 growth, 3 h; stronger effect = lower value; 130,000 compounds, 0.27% hits; AID 504770;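 active = z-score under -2 on both plates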;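 also: wells of about 30 µL received 100 nL stock; score is relative to mean and SD of the test wells; the first replicate is given; strong numbers were not always called active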
# Starred values were filed as active, the others as inactive; / = not tested or not shown.
SMILES,CapD inh,AID504770
O/N=C/c1c(SCc2cccc(C(F)(F)F)c2)nc2sccn12,-0.56,/
CC(=O)OC1C(OC(C)=O)N(C(C)=O)C(=O)N1C(C)=O (configuration not stated),2.2,-1.4
Oc1ccc(NC(=S)NCCc2ccccc2)cc1,-0.04,-0.75
O=C(O)c1ccc2c(c1)C(=O)N(c1cccc(Cl)c1)C2=O,0.15,-0.5
CC(=O)C1=NN(c2ccccc2)C(c2cccs2)N1C(C)(C)C (configuration not stated),-0.34,/
COc1ccc(-c2oc(/N=C/c3ccccc3)c(C#N)c2-c2ccc(OC)cc2)cc1,0.17,1.1
CC(C)c1cc(N)on1,/,-2.2*
O=C(CCC1CCCC1)NCc1ccc2[nH]c3c(c2c1)CCCC3,39,0.3

# (more compounds)
SMILES,CapD inh,AID504770
Nc1nc2ccc(-c3nc4ccccc4o3)cc2s1,5.5,-0.4
CCc1cccc(NC(=O)C2CCN(c3nn4c(=O)cc(C)nc4s3)CC2)c1,-2.6,1.9
CCCCc1ccc(C(=O)CCC(=O)O)cc1,0.15,/
O=[N+]([O-])c1cccnc1NCCCn1ccnc1,-1.7,/
CCC1(C)CC(C(=O)c2ccc(OC)cc2)CCO1 (configuration not stated),-0.35,-0.3
O=[N+]([O-])c1cccc(CSc2nc(NCC3CCCO3)c3ccccc3n2)c1 (configuration not stated),-0.64,/
O=c1[nH]c(CNCCO)nc2ccsc12,/,0.05
O=c1[nH]c(CN2CCSc3ccccc32)nc2ccccc12,/,-0.85

# Following part
SMILES,CapD inh,AID504770
C#CCSc1nc(=O)c2cccnc2n1-c1ccc(Br)cc1,-0.44,/
Cc1cc(C(=O)C(C)Sc2n[nH]c(N)n2)c(C)n1-c1ccccc1 (configuration not stated),/,2.8
COc1ccccc1OC(C)C(=O)NN (configuration not stated),-0.035,1.5
O=S(=O)(Cc1ccc(Cl)cc1)c1c[nH]c2ccccc12,-0.28,0.85
CC(C)(C)NC(=O)c1cc(Br)cc2c1OCC2,-0.23,-0.45
Cc1ccc(F)cc1N1C(=O)C(N2C(=O)c3cccc([N+](=O)[O-])c3C2=O)C1c1cccs1 (configuration not stated),-0.39,/
CCN(CC)c1ncnc2ccsc12,-0.17,0.95
CC(Sc1nc2sc3c(c2c(=O)n1C)CCC3)C(=O)Nc1ccc(Cl)cn1 (configuration not stated),/,-0.1

# Continuation:
SMILES,CapD inh,AID504770
CCN1CCN(c2sc(S(C)(=O)=O)nc2S(=O)(=O)c2ccc(Cl)cc2)CC1,0.11,0.55
CC(C)NC(=O)c1ccccc1NC(=O)CN1C(=O)c2cccc3cccc1c23,0.93,-0.45
CCc1cccc(NS(=O)(=O)c2ccc3[nH]c4c(c3c2)CCCC4)c1,0.37,0.3
CCOC(=O)C1=C(C)N=c2s/c(=C/c3ccc(N4CCOCC4)o3)c(=O)n2C1c1c(OC)ccc2ccccc12 (configuration not stated),-0.93,/
Cc1ccc(CNCc2cccn2-c2sc(C)c(C)c2C(=O)O)cc1,-0.82,0.55
CC1(C)CC(=O)C2=C(C1)OC1=C(C(=O)CC(C)(C)C1)C2c1ccccn1,-0.025,0.2
CC1(C)CC(=O)c2cn3ncnc3nc2C1,/,-0.65
CN(CCOC(=O)N1CCc2c([nH]c3ccccc23)C1)Cc1ccccc1,0.18,/

# Other results follow.
SMILES,CapD inh,AID504770
COc1cc(NCCCC(C)N)c2ncccc2c1 (configuration not stated),0.26,-0.1
CCOC(=O)CSc1nc2c(c(=O)[nH]1)C(CC)(C1CCCCC1)Cc1ccccc1-2 (configuration not stated),2.1,/
CN(C)c1ccc(/C=C2/SC(N3CCN(CCC#N)CC3)=NC2=O)cc1,/,0.35
COc1ccc(Cl)cc1N(CC(=O)NCCCC(C)(C)C1OCCO1)S(=O)(=O)c1ccc(C)c([N+](=O)[O-])c1,-0.54,/
CC1CC(C)CN(Cc2nc(N)nc(Nc3ccc4ccccc4c3)n2)C1 (configuration not stated),/,-0.15
COC(=O)c1cc(OC)c(OC)cc1NC(=S)N1CCN(C)CC1,0.02,0.55
O=[N+]([O-])c1cc(Cl)ccc1Oc1c(Cl)cccc1Cl,0.45,/
O=C(CSc1cccc[n+]1[O-])Nc1cccc(Oc2ccccc2)c1,0.34,0.95

# Further structures follow.
SMILES,CapD inh,AID504770
Cc1onc(-c2ccccc2)c1C(=O)NC1CCCCC1NC(=O)c1c(-c2ccccc2)noc1C (configuration not stated),0.6,-0.05
Cc1ccccc1C(=O)N1CCC(C(=O)Nc2ccccc2)CC1,/,-0.15
CCOC(=O)CCCn1nc(C)n2c(cc3sccc32)c1=O,0.07,0.4
CCN(C(=O)Cn1c(=O)n(Cc2ccc3c(c2)OCO3)c(=O)c2ccccc21)c1cccc(C)c1,0.36,0.15
CCOc1ccccc1NC(=O)c1c(NC(=O)COc2ccccc2)sc2c1CCC2,-0.34,/
CCOC(=O)NC1Cc2ccccc2C1Sc1ccccn1 (configuration not stated),-0.83,0.05
Cc1ccc(S(=O)(=O)N(CC(=O)Nc2c(C)n(C)n(-c3ccccc3)c2=O)c2ccc(C)c(Cl)c2)cc1,-0.26,/
COc1ccc(N=C2SC(CC(=O)Nc3ccc(F)cc3F)C(=O)N2CCCN2CCOCC2)cc1 (configuration not stated),/,0.2

# (further entries)
SMILES,CapD inh,AID504770
O=C(O)Cn1c2ccccc2c2ccccc21,9.5,-0.15
Cc1[nH]c(=O)c(C#N)c(C)c1CCC(=O)NC1CCCCCC1,/,0.15
NC(=O)c1cccc(N=Cc2cccc(Cl)c2Cl)c1,0.28,-0.95
CCC(=O)Nc1cc(C)cc(C)c1,-0.23,/
CCCCC[C@H](CC(=O)NO)C(=O)N[C@H](C(=O)N1CCC[C@H]1CO)C(C)C,0.11,/
CCOC(=O)CCCN1C(=O)/C(=C/c2ccc(OC)cc2)SC1=S,-0.32,-0.7
O=C1CSC(c2cccnc2)N1c1ccc(Cl)cc1 (configuration not stated),-0.49,/
CSc1c(C#N)c(=O)[nH]c2sc(C#N)c(N)c12,/,0.1

# A draw from above in order of count of non-hydrogen atoms, low to high.
SMILES,CapD inh,AID504770
CSc1c(C#N)c(=O)[nH]c2sc(C#N)c(N)c12,/,0.1
NC(=O)c1cccc(N=Cc2cccc(Cl)c2Cl)c1,0.28,-0.95
CCOC(=O)CCCN1C(=O)/C(=C/c2ccc(OC)cc2)SC1=S,-0.32,-0.7

# (more compounds)
SMILES,CapD inh,AID504770
COc1ccc(Nc2nnc(-c3ccc(C(=O)NCCO)cc3)c3ccccc23)cc1,-1.4,1.5
CCOC(=O)c1c(C)[nH]c(C(=O)C(C)OC(=O)[C@H](C)N=C2NS(=O)(=O)c3ccccc32)c1C (some centres not stated),/,-0.35
O=C(OC1CCOC1=O)c1ccccc1 (configuration not stated),/,-0.6
N#Cc1ccc(CSc2ncc3ccccn23)cc1,/,0.05
COc1cccc(CN2CCN(Cc3ccc(F)cc3)C2c2ccc(SC)cc2)c1 (configuration not stated),-0.68,1.5
FC(F)(F)c1cnc(N2CCN(Cc3cc(Cl)c4c(c3)OCCCO4)CC2)c(Cl)c1,/,-0.15
COC(=O)c1c(C(C)(C)C)oc2c1cc(NS(=O)(=O)c1cc(C)ccc1C)c1ccccc12,0.53,/
CCN(CC)c1nc(Cl)nc(N(C)C#N)n1,-0.4,0.6

# Additional structures follow:
# Results follow in this order: CapD inh | AID504770
O=C(Oc1ccc(C2SCCS2)cc1)c1ccccc1
  0.17 | -0.5
O=S(=O)(N=C(NNC(=S)Nc1ccc(F)cc1)NNC(=S)Nc1ccc(F)cc1)c1ccccc1
  -0.27 | /
CSc1nnc(CSCc2ccc(Cl)cc2Cl)n1-c1ccccc1
  -0.14 | /
Cc1cc(C)n(-c2ncc(C#N)cn2)n1
  0.26 | 0.3
COc1ccc2ccccc2c1/C=C1/SC(=Nc2ccccc2)NC1=O
  -1.1 | /
CCOC(=O)C1=C(C)NC(=S)NC1c1ccc(OCC(=O)N2CCCCC2)c(OC)c1 (configuration not stated)
  / | -0.8
CC1=CC(=O)C(CCCCCC2=CC(=O)C(C)=CC2=O)=CC1=O
  -0.37 | 1.3
O=c1c2c(nc3nn[nH]n13)CCN(Cc1ccccc1)C2
  -0.46 | -0.25
O=C1/C(=C/c2ccc(Cl)nc2)S/C(=N\n2cnnc2)N1c1ccccc1
  -0.17 | /
Cc1cc2cc(C(c3nnnn3Cc3ccco3)N3CCN(C(=O)c4ccco4)CC3)c(=O)[nH]c2cc1C (configuration not stated)
  / | 0.05
CCCN1CCC(N(C2CC2)S(=O)(=O)c2ccc(NC(=O)c3ccccc3)cc2)CC1
  -0.25 | /
O=S(=O)(/N=C(\Nc1ccncc1)c1ccccc1)c1ccccc1
  / | -0.2
Cc1nnc(SCC(=O)NC2CCCCC2)n(N)c1=O
  / | -0.15
FC(F)(F)C1CCCNC1 (configuration not stated)
  / | -0.25
COc1ccc(C2(O)CN(c3ccccc3)C3=[N+]2CCCC3)cc1OC (configuration not stated)
  0.86 | /
O=C(Cc1ccccc1)NC1CCN(S(=O)(=O)c2cccc(F)c2)CC1
  / | -0.35
Cc1ccc(-c2ccc(=O)n(CC(=O)N3CCCCC3)n2)cc1
  -0.34 | 0.35
Cc1nnc(NC(=O)C2c3ccccc3Oc3ccccc32)s1
  -0.32 | 2.1
CCC1=NN(C(=O)Cc2ccc(OC)c(OC)c2)C(O)(C(F)(F)F)C1 (configuration not stated)
  -0.05 | /
Cc1nn(-c2ccccc2)c2sc(C(=O)NCCO)cc12
  5.9 | 0.25

# An excerpt of these results, field by field.
> CC(=O)C1=NN(c2ccccc2)C(c2cccs2)N1C(C)(C)C (configuration not stated)
  CapD inh = -0.34; AID504770 = /
> COc1ccc(-c2oc(/N=C/c3ccccc3)c(C#N)c2-c2ccc(OC)cc2)cc1
  CapD inh = 0.17; AID504770 = 1.1

# Next section.
# Results follow in this order: CapD inh | AID504770
CC1CN(CC(=O)NC(c2ccccc2)c2ccccc2)CC(C)O1 (configuration not stated)
  / | 0.05
Nc1ncnc2nc(Sc3ncnc4ccccc34)[nH]c12
  0.4 | 0.8
COc1ccc(/C=C/C(=O)Nc2ccccc2)cc1
  -1.2 | -0.75
CC(=O)OC[C@H]1O[C@@H](n2cc(Br)c(=O)[nH]c2=O)C[C@@H]1OC(C)=O
  0.01 | 0.3
COc1ccc2nc(NC(=O)CCc3nc(-c4ccccc4F)no3)sc2c1
  0.42 | 0.2
O=C(O)c1nsnc1NCCO
  -1.4 | 0.05
COCCNS(=O)(=O)Cc1ccc(Cl)cc1
  0.52 | -1.4
COc1cc(NC(=O)c2cccs2)c(C(=O)NCCCn2nc(C)cc2C)cc1OC
  / | 0.95
CC(C)(C)N(N)C(=S)NCc1ccc(F)cc1
  / | -0.85
CC(C)(C)n1nc2c(c1NC(=O)C1CC1)CSC2
  / | -0.25
Cc1c(CC(=O)O)c2c(n1-c1cc(C(F)(F)F)ccc1Cl)CC(C)(C)CC2=O
  -0.23 | /
Cc1cccc(C2(c3cccc(C)c3)CC2C(=O)Nc2ccc(F)cc2)c1 (configuration not stated)
  -0.23 | /
Cc1nn(Cc2ccccc2)c2sc(C(=O)N3CCCC3)cc12
  / | 0.7
O=C1CCCN1CCCNc1ncnc2c1c(-c1ccccc1)cn2-c1ccc(Br)cc1
  -0.34 | /
CSc1cccc([C@H]2[C@H](C(=O)C34CC5CC(CC(C5)C3)C4)N3C=Cc4ccccc4[C@H]3C2(C#N)C#N)c1
  3.5 | /
CN(C)CC1=C(Cl)c2ccccc2S1(=O)=O
  0.99 | 1.3
Cc1ccc(Cl)cc1NC(=O)CC1NC2CCCCC2NC1=O (configuration not stated)
  -0.05 | -0.1
O=c1oc(-c2ccccn2)nc2ccccc12
  -0.15 | -0.7
CCc1ccc(N2CC(O)(c3ccc(F)cc3)[N+]3=C2SCCC3)cc1 (configuration not stated)
  0.1 | /
Cc1nonc1OCCNC(=O)C12CC3CC(CC(C3)C1)C2
  / | 0.25

# Full records as entered above. Values in the order: CapD inh | AID504770
# Listed for `O=c1oc(-c2ccccn2)nc2ccccc12` → -0.15 | -0.7
# Listed for `Cc1c(CC(=O)O)c2c(n1-c1cc(C(F)(F)F)ccc1Cl)CC(C)(C)CC2=O` → -0.23 | /
# Listed for `COc1ccc2nc(NC(=O)CCc3nc(-c4ccccc4F)no3)sc2c1` → 0.42 | 0.2
# Listed for `CC(=O)OC[C@H]1O[C@@H](n2cc(Br)c(=O)[nH]c2=O)C[C@@H]1OC(C)=O` → 0.01 | 0.3

# Next section:
# Results follow in this order: CapD inh | AID504770
O=C(c1cc(N2CCOCC2)c2nc3ccccc3c(=O)n2c1)c1ccccc1O
  / | 0
Clc1cccc(-c2n[nH]c(-c3ccccc3)n2)c1
  -0.6 | 1.3
COc1cccc(NC(=O)COC(=O)c2ccccc2F)c1
  0.25 | 0.55
COc1ccc(S(=O)(=O)N2CCN(C(c3ccc(Cl)cc3)c3ccc(Cl)cc3)CC2)cc1
  0.37 | /
CN(C(=O)c1ccccc1O)C1CCCCC1
  -0.67 | 2.1
CN(Cc1ccccc1)S(=O)(=O)c1ccc2c(c1)oc(=O)n2C
  -0.33 | 0.15
CC(C)(C)NC(=O)Cc1ccc(S(=O)(=O)N2CCCC2)s1
  / | 0.05
Clc1cccc(Cl)c1CO/N=C/NOCc1c(Cl)cccc1Cl
  -0.67 | /
CN1C(=O)C(=Nc2cccc(Br)c2)c2ccccc21
  / | 0.05
CC(=O)Nc1cccc(-c2nc3ccccc3s2)c1C
  -0.14 | 0.05
CCN1C(=O)C(O)(C(C)C(=O)c2ccccc2)c2ccccc21 (configuration not stated)
  / | -0.6
COc1cccc(-n2c(N)cc(=O)n(Cc3ccccc3)c2=O)c1
  0.17 | -0.85
COc1cc(OC)cc(OC(=O)c2cc(NC(C)=O)cc(NC(C)=O)c2)c1
  / | -0.2
O=C(Cn1cnc2c(nc3n2CCCCC3)c1=O)NCc1ccco1
  0.81 | -0.65
Clc1ccc(Cn2nnc(N3CCCC3)n2)cc1
  -0.57 | 0.1
COc1ccccc1NC(=O)NCC(c1ccco1)N(C)C (configuration not stated)
  / | -0.35

# A portion of the library. The share of hits here may be higher or lower than overall.
